Screening data deposited in PubChem BioAssay by National Center for Advancing Translational Sciences (NCATS).
miR-21 reporter – qHTS Assay for Modulators of miRNAs and/orActivators of miR-21 | HeLa miR-21 FLuc reporter, luciferase, 48 h | Potency, µM (doses to about 38.3 µM), for inactives: at the highest dose reporter change, positive = more light | 340,000 tested, under 10 active | AID 2288, 2010; active = well fitted rising curve with a large enough effect; inconclusive = small, poorly fitted or top-dose-only effect; inactive = no such curve, though single readings can be large or run the other way;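 further: % of control where 0% means no effect; miR-21 action dims this reporter so a rising signal means less miR-21 action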
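HeLa miR-21-FLuc reporter line, endogenous miR-21; 2000 cells/well in DMEM/10% FBS; compound titration up to ~40uM final, 48 h, 37 degree Celsius; luciferase detection reagent, 15 min lysis, CCD luminescence.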
GLA inh pH 4.5 – qHTS Assay for Inhibitors of Human alpha-Galactosidase at pH 4.5 | Alpha-galactosidase A (Homo sapiens), P06280 | purified enzyme, 4-MU-alpha-Gal fluorescence, pH 4.5 | activity change, negative = inhibition, % at 105 µM | 230,000 tested, under 10 active | AID 1467, 2008; inconclusive = small, poorly fitted or top-dose-only inhibition, or a rising curve; inactive = flat fitted curve, though single readings scatter; no compound was filed as active;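 further: 0% = full activity with enzyme and -100% = basal without enzyme; dose as in the result columns while the protocol names 77 µM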
Target sequence (P06280 whole entry, looked up): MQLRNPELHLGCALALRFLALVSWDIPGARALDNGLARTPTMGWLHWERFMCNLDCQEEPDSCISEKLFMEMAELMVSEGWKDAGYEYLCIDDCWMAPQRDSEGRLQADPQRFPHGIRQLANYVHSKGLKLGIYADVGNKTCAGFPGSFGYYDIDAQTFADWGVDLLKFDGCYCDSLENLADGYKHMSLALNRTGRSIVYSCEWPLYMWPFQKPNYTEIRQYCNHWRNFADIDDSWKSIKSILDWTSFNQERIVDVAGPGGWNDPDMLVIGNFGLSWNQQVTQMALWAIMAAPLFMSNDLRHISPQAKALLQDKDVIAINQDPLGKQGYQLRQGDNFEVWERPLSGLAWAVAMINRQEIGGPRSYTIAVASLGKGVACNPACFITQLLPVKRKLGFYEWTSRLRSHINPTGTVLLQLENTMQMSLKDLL
Rango dissoc inh – qHTS Assay for Inhibitors of RanGTP induced Rango (Ran-regulated importin-beta cargo) - Importin beta complex dissociation; Biochemical FRET Rango-importin beta, RanGTP-induced dissociation; 0.071% of 340,000 active; Potency, µM (titrated, usually from 46.1 µM), inactives show at the top dose activity change, negative = inhibition; AID 540253, 2011; Snurportin-1 (Homo sapiens) + GTP-binding nuclear protein Ran (Homo sapiens) + Importin …; active means falling FRET ratio curve, often poorly fitted, with flat reads before Ran was added; inconclusive means other falling curves, or compound fluorescence or quenching; inactive means flat or rising ratio curve;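 further: potency means the concentration at half of the fitted maximal effect; % of control where 0% means no effect; nearly all actives have a fitted effect of over 45% in size; -100% = wells without RanGTP and RCC1; the record marks most hits as doubtful in a second field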
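Compounds sat 5 min at room temperature with 0.1 uM Rango biosensor plus 0.25 uM importin beta, then FRET pre-read. RanGTP-RCC1 (0.6 uM Ran, 2mM GTP, 0.2 uM RCC1) added for 45 min, and the CFP/YFP post-read measured blocked complex dissociation.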
Rango complex inh – qHTS Assay for Inhibitors of Rango (Ran-regulated importin-beta cargo) - Importin beta complex formation. Importin subunit beta-1 (Homo sapiens), Q14974. 0.031% of 340,000 active. AID 540263, 2011. Rango CFP/YFP FRET sensor + importin beta, 45 min. Potency, µM (doses to about 92.2 µM), inactives show at the top dose inhibition of complex formation; active = rising FRET ratio curve, often small or poorly fitted; inconclusive = mostly compound fluorescence or quenching in the first reads; inactive = flat curves in all reads;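 further: potency means the concentration at half of the fitted maximal effect; 0% = DMSO wells and 100% = buffer wells lacking importin beta; nearly all actives have a fitted effect of over 15% in size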
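FRET biosensor (snurportin 1 IBB flanked by EYFP and cerulean), 50 nM, with compound 5 min, then 0.125 microM importin beta in PBS, 1 mM DTT, 0.02% Tween-20, 0.1% BSA. CFP/YFP ratio read after 45 min at room temperature; pre-read flags interference.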
Numbers without * were called inactive; ? = inconclusive; . = no result given; & = joins results of further samples.

structure	Rango dissoc inh	miR-21 reporter	Rango complex inh	GLA inh pH 4.5
Cc1cc(C)c(C(N)=O)c(Nc2cccc(Cl)c2C)n1	1%	-1%	3.2%	3
O=S(=O)(O)c1ccc(Cl)c(Cl)c1	9%	.	6.1%	.
COc1ccccc1N1CCN(/N=C/c2cc(OC)c(OC(C)=O)c(OC)c2)CC1	-21%	-6%	-0.3%	.
O=C(Cc1ccc(-n2c(=O)c3sccc3n(Cc3ccc(F)cc3)c2=O)cc1)NCc1ccco1	-8%	-1%	0.3%	-4
COc1ccc(/C=C/C(=O)c2ccc3c(c2)OCO3)c(OC)c1	?	-47%	?	-10
Cc1ccsc1C(=O)N1CCC(CO)(Cc2ccccc2)CC1	4%	0%	2.4%	-7
O=C(Nc1c2c(nc3ccccc13)CCCC2)c1ccccc1Br	0%	1%	1.8%	-8
CCN1/C(=C2\C(=O)N(c3ccccc3)N=C2C)C=Cc2cc(C)ccc21	3%	-5%	0.5%	-6
c1ccc(-c2ccnc3nc(N4CCN(c5ccccc5)CC4)nn23)cc1	-3%	-12%	0.2%	3
Cc1ccn2cc(C(=O)Nc3ccc4c(c3)OCCO4)nc2c1	-1%	-13%	1.4%	3
CCOc1ccc(Cc2noc3c2C(=O)CC(C)(C)C3)cc1OCC	-23%	-2%	-5.3%	0
Cc1cc(C)nc(N/N=C/C2=C(N3CCOCC3)C(=C/c3ccccc3)/CC2)n1	?	?	?	3
CC(C)OP(=O)(OC(C)C)C(NC(=O)c1ccccc1)C(N)=O (centres undefined)	-6%	2%	-2.6%	4
CCCn1c(CNc2ccccc2O)nc2ccccc21	-20%	-4%	-4.3%	-10
CCOc1nc(Nc2ccc(OC)cc2)nc(OCC)n1	-15%	-10%	-5.4%	-2
Cc1ccc(S(=O)(=O)c2c(C)cc(C)[nH]c2=O)cc1	14%	-2%	-3.4%	.
O=C(Nc1ccc2c(c1)OCCO2)c1cc2sccc2n1Cc1ccccc1	1%	-11%	0.2%	6
O=C(/C=C/c1ccc(Cl)cc1)Nc1ccc(Br)cn1	-11%	2%	-1.3%	4
COC(=O)CC(NC(=O)Nc1ccc(C)cc1)c1cccc([N+](=O)[O-])c1 (centres undefined)	-11%	-9%	0.5%	0
CCC1(CC)C(=O)C2=C3C1[C@H](C(=O)OC)C=C(C(=O)OC)C[C@H]3[C@H]1C(=O)N(CC(=O)OC)C(=O)[C@H]1[C@H]2C (some centres undefined)	7%	.	?	.
COc1ccc(CNC(=O)CN2C(=O)NC3(CCCCCC3)C2=O)cc1OC	-11%	-1%	1.0%	7
COC(=O)c1cc2c(n1S(=O)(=O)c1ccc(C)cc1)C(=O)C(=O)c1[nH]cc(C(=O)OCc3ccccc3)c1-2	2%	.	0.5%	.
CCN(CC)S(=O)(=O)c1cccc(C(=O)Nc2cc(C)cc(C)c2)c1	-13%	-34%	1.3%	1
CN(c1ccc(OCC(=O)OCC(=O)Nc2ccc(OC(F)F)cc2)cc1)S(=O)(=O)c1cccs1	24%	.	0.0%	.
NC(=O)NC(c1ccccc1)c1ccccc1	3%	-1%	3.3%	5
COc1cccc(-c2cc(C(=O)Nc3ccncc3)c3ccccc3n2)c1	-3%	21%	0.6%	.
O=C(NCc1ccccc1Cl)c1cnn2cccnc12	1%	-8%	1.2%	-1
Cc1ccccc1C(=O)c1cccn1CC(=O)NCCN1CCN(c2cccc(C)c2C)CC1	3%	?	0.7%	-6
Cc1c(Cl)c([N+](=O)[O-])nn1CC(=O)N1CCN(C23CC4CC(CC(C4)C2)C3)CC1	-1%	1%	0.3%	.
O=C(CCNC(=O)c1ccccc1Cl)NCCC1=CCCCC1	-4%	.	-0.4%	.
Cc1cccc(NC(=O)CN2CCN(C(=O)CN3C(=O)NC4(CC(C)CC(C)(C)C4)C3=O)CC2)c1C (centres undefined)	-2%	.	-1.0%	.
CC(OC(=O)c1ccc([N+](=O)[O-])s1)C(=O)NC1CCCCC1C (centres undefined)	-14%	.	-2.6%	.
COc1ccccc1NC(=O)Nc1ccc2[nH]c(=O)[nH]c2c1	6%	-2%	0.0%	1
O=C(N=C1SC2CS(=O)(=O)CC2N1Cc1ccc(Cl)cc1)C1CC1 (centres undefined)	-21%	-3%	-2.4%	.
CC(C)(C)Cc1nnc(NC(=O)CSc2ccccc2)s1	-3%	-18%	-0.6%	.
CCN(CC)S(=O)(=O)c1ccc(Cl)c(C(=O)NC)c1	0%	-4%	?	-4
O=C(Nc1ccc(NC(=O)C2CCCCC2)nc1)c1ccccn1	3%	-30%	9.2%	0
CC(C)N(C(=O)CSc1nc2ccccc2n1Cc1ccc(F)cc1)C(C)C	1%	3%	-2.8%	-11
O=C(Nc1ccc(S(=O)(=O)NCc2ccccc2)cc1)c1ccc(Br)o1	11%	-1%	-5.1%	-27
Cc1ccc(S(=O)(=O)N2CCN(c3ccc4nnc(-c5ccccc5)n4n3)CC2)cc1	17%	0%	-4.9%	-5
CN(C)CC(C)(C)CNS(=O)(=O)c1cccc(Cl)c1Cl	15%	-1%	-0.3%	12
CC1(C)NC(=O)N(CC(=O)N2CCN(c3ccc([N+](=O)[O-])cc3)CC2)C1=O	1%	.	-0.1%	.
CCCCCCCOC(=O)C[N+](C)(C)CCOC1CC2CCC1(C)C2(C)C (centres undefined)	-3%	?	1.2%	3
CCOc1cc(C(=O)NCc2ccccc2)ccc1OCC(=O)N1CCOCC1	38%	0%	4.1%	-10
COc1ccc(OCC(=O)NC(=O)c2ccccc2)c([N+](=O)[O-])c1	14%	.	-2.7%	.
N#Cc1cc(-c2ccccc2)c[nH]c1=O	20%	-3%	1.5%	7
CCOC(=O)c1ccc2c(c1)nc(SCC(=O)N1CCOCC1)n2CC	50%	-5%	1.2%	-15
Cc1ccc(C(=O)N/C(=C\c2cccs2)C(=O)N2CCN(C)CC2)cc1C	-13%	-3%	1.8%	.

Three compounds from above, ordered by number of heavy atoms, high to low.
structure	Rango dissoc inh	miR-21 reporter	Rango complex inh	GLA inh pH 4.5
Cc1ccc(C(=O)N/C(=C\c2cccs2)C(=O)N2CCN(C)CC2)cc1C	-13%	-3%	1.8%	.
O=C(Nc1ccc(S(=O)(=O)NCc2ccccc2)cc1)c1ccc(Br)o1	11%	-1%	-5.1%	-27
N#Cc1cc(-c2ccccc2)c[nH]c1=O	20%	-3%	1.5%	7

Carrying on:
structure	Rango dissoc inh	miR-21 reporter	Rango complex inh	GLA inh pH 4.5
Cc1oc(=O)c(NC(=O)c2ccccc2)cc1C(C)O (centres undefined)	6%	-27%	1.2%	14
CCOc1cc(/C=N/NC(=O)Nc2ccccc2)ccc1O	-13%	-50%	-2.1%	-4
CCC(=O)Nc1c(C(=O)N2CCCCCC2)cnn1-c1ccc(C)c(C)c1	-11%	-2%	-3.3%	1
Nc1cc(S(=O)(=O)Nc2ccccc2Cl)ccc1N1CCCCC1	-1%	.	?	.
CCOc1ccccc1NC(=O)c1ccc(-n2cncn2)nc1	23%	-5%	-3.3%	2
COc1cccc(-c2ccc(NC(=O)C3CCCN(CCCn4cccn4)C3)cc2)c1 (centres undefined)	20%	7%	0.1%	.
O=C1C2CC=CCC2C(=O)N1c1ccc(NCCc2ccc(O)cc2)c([N+](=O)[O-])c1 (centres undefined)	1%	0%	3.7%	-17
CN(C)c1ccc(-c2sc(Nc3ccccc3)n[n+]2-c2ccc(F)cc2)cc1	29%	-3%	1.0%	.
CCCn1cc(SCC(=O)Nc2cc(C)on2)c2ccccc21	-2%	4%	4.6%	.
COc1ccc(/C=N/NC(=O)c2cccc(C(=O)N/N=C/c3ccc(OC)cc3)n2)cc1	4%	-1%	0.7%	.
COC(=O)c1ccc(CSc2nc3sc(C(=O)O)c(C)c3c(=O)[nH]2)cc1	3%	-4%	3.5%	3
Cc1c(Cl)cccc1N1C(=O)CC(NNC(=O)c2cccnc2)C1=O (centres undefined)	-11%	-5%	?	3
CCOC(=O)N1CCN(C(=O)CSc2nnc(-c3ccc(C(C)(C)C)cc3)o2)CC1	0%	-8%	-0.3%	-1
Cc1ccc(C(NC(=O)N2CCOCC2)C(Cl)Cl)cc1F (centres undefined)	-19%	-2%	3.7%	-1
O=C(NC(=S)Nc1ccc2[nH]ncc2c1)c1ccccc1	2%	-21%	-4.1%	4
COc1ccc(Cl)cc1NC(=O)NCCN1CCCCC1	28%	-8%	-1.7%	-5
CCCc1nc2nc(C)c(NS(=O)(=O)c3ccc(C(C)(C)C)cc3)c(=O)n2[nH]1	15%	0%	1.5%	.
COc1ccc(N2CCN(c3ncnc4c3cnn4-c3ccc(C)cc3C)CC2)cc1	0%	1%	4.1%	8
O=C(NCc1ccccc1Cl)C(=O)NCC1CCCN1S(=O)(=O)c1cccs1 (centres undefined)	12%	.	-2.4%	.
O=C(NC(=S)Nc1cccc(NC(=O)c2ccccc2)c1)c1cccc([N+](=O)[O-])c1	4%	-9%	0.7%	-3
ClC1(Cl)CC1CSc1ncn[nH]1 (centres undefined)	18%	-13%	0.1%	0
COc1ccc(-c2noc(CCC(=O)N3CCN(c4cc(C)ccc4C)CC3)n2)cc1	4%	-5%	-0.4%	-3
COc1ccc(/C=C/C(=O)OCC(=O)c2c[nH]c3ccccc23)cc1	10%	.	-1.9%	.
CCCCOC(=O)n1c(=O)oc2ccc(S(=O)(=O)N3CCCCC3)cc21	0%	13%	-1.7%	-1
CC1(C)CC(=O)C2=C(C1)Nc1ccccc1NC2c1ccccc1F (centres undefined)	-6%	3%	-0.9%	.
O=C(CN1C(=O)C2C3C=CC(C3)C2C1=O)NCCc1ccccc1 (centres undefined)	10%	-19%	0.2%	9
S=C(NCc1ccc2c(c1)OCO2)NC1CC1	-16%	-1%	0.2%	-4
O=C(COCc1ccccc1)N[C@@H]1c2ccccc2CC[C@H]1OCc1ccccc1	-9%	.	-1.1%	.
COc1ccc(C(=O)Nc2ccccc2-c2nnn(CC(N)=O)n2)cc1	11%	.	-1.6%	.
COc1ccc(N2CCN(C(=O)CNC(=O)Cc3ccc(Cl)cc3)CC2)cc1	-6%	19%	-0.2%	.
Cc1ccc(S(=O)(=O)Nc2ccccc2C(=O)Nc2ccc(S(=O)(=O)Nc3nccc(C)n3)cc2)cc1	-19%	-5%	-2.5%	-9
CCCC/C=C/C(NC(=O)CCc1ccccc1)c1ccccc1 (centres undefined)	-5%	-9%	1.1%	-11&-10
COc1ccc(NC(=O)CCNC(=O)Cn2cnc3sc4c(c3c2=O)CCCC4)c(OC)c1	13%	-7%	1.0%	.
CCC(C)(C)NC(=O)CC(c1ccc(OC)cc1)n1cccc1 (centres undefined)	-16%	-1%	0.6%	0
Cc1ccc(S(=O)(=O)N2CCC(C(=O)Nc3ccccc3N3CCCCC3)CC2)cc1	-4%	1%	-0.7%	1
C[C@@H](NC(=O)[C@@H]1Cc2ccccc2CN1)C(=O)NCc1ccco1	-16%	-1%	-13%	.
C=CCOn1c(=O)c(-c2cc3ccccc3o2)[n+]([O-])c2ccccc21	?	-47%	?	2

A portion of the library. The share of hits here may be higher or lower than overall.
